PMP22 txn = modulates PMP22 transcription in S16 Schwann cells. S16 Pmp22-F2sN Schwann cells (luciferase reporters placed in the Pmp22 gene), FLuc/NLuc coincidence luminescence, 24 h. Potency, µM (titrated, usually from 57.5 µM), inactives show at the highest dose activity change, negative = inhibition, hits mostly inhibitors. hit rate 2% among 43,000; active = clear falling dose curves in both reporters; inconclusive = both reporters move, but less clearly or upward; inactive = either reporter flat; the % is the NLuc reporter signal; note: % is set by controls: 0 for no effect and ±100 for the full control effect; some results filed as inactive show a strong effect at the top dose
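S16(c9) Schwann cells with FLuc/NLuc coincidence reporter in the Pmp22 3' UTR; compounds pin-transferred, 24 h at 37C. Dual-luciferase read: FLuc first, then NLuc after Stop&Glo, each 10 min at room temperature.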
HTT promoter inh = inhibits huntingtin promoter activity; hit rate 0.93% among 48,000; Potency, µM (highest dose often 57.5 µM), for inactives: top-dose activity change, negative = inhibition, hits mostly inhibitors; HEK293 HTT promoter firefly luciferase reporter (activity 0% = vehicle and -100% = no light), 24 h; active = well fitted inhibition curve with a large enough effect; inconclusive = small, poorly fitted or top-dose-only effect; inactive = no such curve, though single readings can be large or run the other way; note: nearly all actives have a fitted effect of over 50% in size
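Firefly luciferase readout (Dual-Glo, 10 min RT) after 24 h, 37 °C compound exposure (final up to 57.5 uM) of HEK293 reporter cells cultured 24 h beforehand; PTC124 at 50 uM final as control inhibitor; activity scaled vehicle 0%, zero RLU -100%.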
Active calls of the source: *; ? = inconclusive; / = no result given; & = joins results of further samples; [ ] = remark or other dose. Potency is the fitted concentration of half-maximal effect.

SMILES,HTT promoter inh,PMP22 txn
COc1ccc(-c2noc(CC(=O)N(C)c3ccccc3F)n2)cc1,-8%,8%
COc1ccc(Cl)cc1NC(=O)CSc1ccc(-c2sc(C)nc2C)nn1,?,-73%
Cc1cccc(-n2c(=O)c3c(c4cc(C)ccc4n3C)n(CC(=O)N3CCCC3)c2=O)c1,-22%,6%
Cc1ccc(NC(=O)C(Cc2ccccc2)n2cccc2)cc1C (centres undefined),?,2%
CCc1ccc(CNC(=O)CCSCc2ccccc2F)cc1,-26%,5%
COc1cccc(N2CCN(C(=O)CCCCCn3c(=O)[nH]c4ccccc4c3=O)CC2)c1,-17%,?
NC(=O)C1(N2CCCCC2)CCN(C(=O)Nc2ccc(F)cc2F)CC1,-3%,2%
CC(=O)N1CCC2(CC1)OC(=O)C(C)=C2C(=O)NCc1cccc(Cl)c1,-21%,1%
CCOC(=O)c1ccccc1NC(=O)Cn1c(=O)n(Cc2ccccc2)c(=O)c2c(C)c(C)sc21,-11%,18µM*
CC1CCCCN1CCCNC(=O)c1ccc2c(c1)sc1nc(-c3ccc(F)cc3)cn12 (centres undefined),1%,?
O=C(NCc1ccc(F)cc1Cl)c1ccc(CSCc2ccccc2Cl)o1,-5%,-25%
COc1ccc(C(=O)NCC(c2ccco2)S(=O)(=O)c2ccc(F)cc2)cc1 (centres undefined),-34%,-95%
CCn1c2c(c(=O)n3ncc(C(=O)Nc4ccc(Cl)cc4C)c13)CN(Cc1ccc(OC)cc1)CC2,-22%,?
C[C@@H](N)C(=O)O,-1%,/
CCc1nc(SC)ncc1C(=O)N1CCN(c2cc(Cl)ccc2C)CC1,-17%,-25%
COc1ccc(NC(=O)c2ccc(-c3nc(COc4ccccc4)c(C)o3)cc2)cc1,?,-14%
CCOC(=O)C1CCC(CN(Cc2c(Cl)cccc2Cl)S(=O)(=O)c2ccc(F)cc2)CC1 (centres undefined),?,?
O=C(Cn1cnc2c(nc3n2CCCCC3)c1=O)Nc1ccc(F)cc1,-8%,0%
Cc1ccccc1C(=O)c1cccn1CC(=O)NCc1cccc(Cl)c1,26%,13%
CCOC(=O)c1ccc(NC(=O)N2CC3CCCN3c3ccccc32)cc1 (centres undefined),-27%,-62%
COc1ccc(N2CCN(c3nc4ccc(C(=O)c5ccccc5)cc4n4cnnc34)CC2)cc1,-12%,0%
COC(=O)c1cccc(NC(=O)Nc2cc(C(=O)NCc3cccc(F)c3)ccc2N2CCCC2)c1,?,?
CCOc1ccc(CNCc2c(C(=O)O)c(C)n(Cc3cccc(OC)c3)c2C)cc1OC,-4%,-24%
COc1cc(OC)c(NC(=O)C2=C(C)C(=O)OC23CCN(C(C)=O)CC3)cc1Cl,-2%,0%
COc1ccc(CCCc2nnc(SCC(=O)Nc3ccc(C)c(C)c3)o2)cc1,-21%,-6%
CC1=C(C(=O)OCC2CCCCC2)C(c2cccc(Cl)c2Cl)CC(=O)N1 (centres undefined),-11%,0%
Cc1cc(C)cc(NS(=O)(=O)c2cc3c(cc2C)NC(=O)CO3)c1,?,-1%
COC(=O)c1c(NC(=O)CCCOc2ccccc2C)sc2c1CCC(C)C2 (centres undefined),1%,-5%
CCn1cc(C(=O)N2CCN(c3cc(C)ccc3C)CC2)c(=O)c2cc(S(=O)(=O)N(C)C3CCCCC3)ccc21,-9%,?
COc1ccc(N2CCN(S(=O)(=O)CCNC(=O)Cc3ccc(OC)c(OC)c3)CC2)cc1,?,-18%
Cn1nc(-c2ccc(OCC(=O)Nc3ccc(Cl)cc3)cc2)c2ccccc2c1=O,-23%,-17%
COc1c(Cl)cc(C(=O)N(Cc2ccccc2F)C2CCS(=O)(=O)C2)cc1Cl (centres undefined),3%,-4%
CCOC(=O)c1cnc2ccc(C(=O)OC)cc2c1Nc1ccc(OCc2ccccc2Cl)cc1,-16%,-18%
N[C@@H](C(=O)N[C@@H]1C(=O)N2C(C(=O)O)=C(Cl)CS[C@H]12)c1ccccc1,0%,/
Cc1cc(C)n2nc(CNC(=O)c3cccc(Cl)c3)nc2n1,4%,-19%
O=C(Nc1ccc(C(F)(F)F)cc1)N1CCC(N2CCCCC2)CC1,-4%,-16%
CSc1ncc(Cl)c(C(=O)Nc2c(C(=O)c3ccc(Cl)cc3)oc3ccccc23)n1,-8%,8%
Cc1ccc2c(c1)c(=O)c1ccccc1n2CCCC(=O)Nc1cc(Cl)ccc1C,-24%,?
O=C(Cn1c(SCCOc2ccccc2Cl)nc2ccccc21)N1CCOCC1,-6%,-29%
Cn1c(=O)c(=O)n(C)c2cc(NC(=O)c3ccccc3Br)ccc21,3%,-9%
O=C(CN1C(=O)C2(SCC(=O)N2c2ccccc2)c2ccccc21)Nc1ccccc1C(F)(F)F (centres undefined),-18%,-8%
Cc1ccc(NC(=O)Cn2nnc(C(=O)NCc3ccc4c(c3)OCO4)c2N)cc1Cl,-16%,-25%
O=C(CCS(=O)(=O)c1ccccc1)N(Cc1cccnc1)c1nc2ccc(F)cc2s1,13%,11µM*
CCCCN(C)CC(O)Cn1cc(/C=C/C(=O)c2ccc(C)cc2)c2ccccc21 (centres undefined),?,?
CN(C)c1ccc(/C=C(\C#N)c2nc(-c3ccc(Cl)c(Cl)c3)cs2)cc1,-4%,-26%
Cc1ccc(-c2cc3ncc4c(n3n2)-c2cc(C)ccc2OC4)cc1,-13%,-12%
O=C(C1CC1)N1CCc2cc(Br)cc(S(=O)(=O)N3CCN(c4ccccc4F)CC3)c21,-3%,-23%
COc1cccc(N2CCN(C(=O)C3CCCN(S(=O)(=O)c4ccc5c(c4)oc(=O)n5C)C3)CC2)c1 (centres undefined),?,?
CN(C(=O)c1cc(-c2ccccc2O)on1)c1ccccc1,-13%[11.5 µM],?
COc1ccc(OC)c(NC(=O)CC2C(=O)NCCN2C(=O)C(F)(F)F)c1 (centres undefined),-18%,24%
CCC(C)n1c(=N)c(C(=O)NC2CCCC2)cc2c(=O)n3ccccc3nc21 (centres undefined),-3%,9.5µM*
Cc1ccccc1CN1C(=O)c2ccccc2Sc2ccc(C(=O)NC(C)c3ccccc3)cc21 (centres undefined),-27%,1%
O=C(NCCc1ccc(Cl)cc1)c1ccc(CS(=O)(=O)Cc2ccccc2F)o1,-20%,-30%
Cc1ccc2c(c1)N(C(=O)C1CCN(S(=O)(=O)c3c(C)noc3/C=C/c3ccccc3F)CC1)CCO2,-35%,17%
COCCCOc1ccnc(CS(=O)c2nc3ccccc3[nH]2)c1C (centres undefined),15%&26%,/
Cc1ccc(OCC(=O)Nc2ccccc2OCc2cc(=O)n3ccccc3n2)cc1C,0%,-7%
CC(=O)c1cc(-c2ccccc2)n(CCC(=O)NC(C)c2ccccc2)c1C (centres undefined),?,20%
CCOC(=O)C1CCCN(S(=O)(=O)c2cc(-c3cc(C)no3)ccc2C)C1 (centres undefined),?,-12%
O=C(NOC[C@H](O)CO)c1ccc(F)c(F)c1Nc1ccc(I)cc1F,5%,/
c1ccc(-c2ccc(C(c3ccccc3)n3ccnc3)cc2)cc1 (centres undefined),-20%,/

Record cards, from the list above. Order of values: HTT promoter inh	PMP22 txn
Listed for COc1c(Cl)cc(C(=O)N(Cc2ccccc2F)C2CCS(=O)(=O)C2)cc1Cl (centres undefined) : 3%	-4%
Listed for c1ccc(-c2ccc(C(c3ccccc3)n3ccnc3)cc2)cc1 (centres undefined) : -20%	/

Other entries:
SMILES,HTT promoter inh,PMP22 txn
Cc1cccn2c(=O)c(C(=O)NCCc3ccc(S(N)(=O)=O)cc3)c(O)nc12,-6%,-15%
Cc1nc2nncn2c(N2CCN(c3ccccc3)CC2)c1C,?,?
Cc1nn(CC(=O)NCc2ccccc2Cl)c(=O)c2cccn12,18%,7%
COC(=O)c1cccnc1-n1c(=O)c2cccnc2n(CC(=O)Nc2ccccc2F)c1=O,-11%,0%
Cc1nc2cccnc2n1C1CCN(C(=O)Nc2ccccc2C(F)(F)F)CC1,10%,-38%
CCc1ccc(CN(Cc2ccco2)C(=O)COc2ccc(Cl)cc2C)cc1,?,-63%
COc1cc(OC)c(NC(=O)C(c2ccccc2)N2Cc3ccccc3C2=O)cc1Cl (centres undefined),-22%,0%
CCc1ccccc1NC(=O)c1ccc(=O)n(Cc2ccc(F)cc2)c1,-14%,-20%
CCOc1ccccc1C(=O)Nc1cc(-c2nc3cccnc3s2)ccc1C,14%,-25%
Cc1cc(C)cc(NC(=O)C2CCCN2S(=O)(=O)c2ccc3nc(-c4ccccc4)[nH]c3c2)c1 (centres undefined),-18%,-16%
Cc1ccc(-c2nnn3c2nc(NC2CCC(C)CC2)c2ccccc23)cc1 (centres undefined),2%,-61%
CCc1ccccc1NC(=O)CSc1nc2ccccc2nc1Cc1cccc(OC)c1,-5%,1%
Cc1nn(-c2ccccc2)c2c1cc1c(=O)n(C)c(=O)nc-1n2-c1cccc(Cl)c1,-15%,8%
Cc1ccc(-c2nn(-c3ccc(F)cc3F)c3c2cnc2ccc(F)cc23)cc1,-2%,-35%
COC(=O)c1ccc(NC(=O)CSc2nc(=O)n(Cc3ccco3)c3c2CCC3)cc1,0%,8.3µM*
Cc1ccc(Nc2ncnc3c2nc2n3CCCC2)c(Br)c1,-36%,-4%
COc1ccccc1-c1nnc(C2CCN(S(=O)(=O)c3ccc(CC(C)C)cc3)CC2)o1,?,?
CCCN1C(=O)C2(c3ccccc31)c1c(oc3ccc(C)cc3c1=O)C(=O)N2CCOC (centres undefined),-20%,1%
COc1ccc(NC(=O)C(Cc2ccccc2)n2cccc2)cc1OC (centres undefined),-19%,-6%
O=C(Nc1ccc(Cl)c(C(F)(F)F)c1)C(Cc1ccccc1)NS(=O)(=O)c1cccc2nsnc12 (centres undefined),?,?
CC1=C(c2ccc(F)cc2)S(=O)(=O)NC1=NCc1ccccc1Cl,-29%,-17%
CNC(=O)CCCN1C(=O)CCn2nc(-c3cn(C)c4ccccc34)cc21,-12%,-3%
Cc1ccc(C(c2ccccc2)c2c(C)[nH]c3ccccc23)s1 (centres undefined),?,?
Cc1cccc(CN2C(=O)N(c3ccc(C(C)C)cc3)S(=O)(=O)c3ccccc32)c1,?,?
COc1cc(OC)c(OC)cc1CN1CCc2nc(N3CCN(c4ccccc4F)CC3)ncc2C1,?,?
Cc1ccc(-n2nc3ccc(NC(=O)COc4ccccc4)cc3n2)cc1Cl,2%,-15%
CCc1nn(CC(=O)N2CCN(c3cccc(C(F)(F)F)c3)CC2)c(=O)c2cc3occc3n12,-13%,-5%
COc1ccccc1CNC(=O)CCC(=O)N1Cc2ccccc2Oc2ncccc21,-8%,-37%
Nc1cc(C(Cl)=C(Cl)Cl)c(S(N)(=O)=O)cc1S(N)(=O)=O,1%&-7%,/
O=C(c1noc2c1CCCCC2)N1CCN(c2cccc(Cl)c2)CC1,?,-38%
CN(C(=O)c1oc(=O)c2ccccc2c1-c1ccccc1)c1cccc(Cl)c1,?,?
COc1ccc2oc(-c3ccc(C)c(NC(=O)c4ccc(N5CCCCC5)c([N+](=O)[O-])c4)c3)nc2c1,3%,-23%
COc1cccc2c1Oc1ncccc1N(C(=O)CCC(=O)NCc1ccc(OC(C)C)cc1)C2,1%,0%
CCOc1ccc(OCCOCCn2c(-c3ccc(Cl)cc3)nc3ccccc3c2=O)cc1,-14%,1%
CCC(=O)Nc1nnc(S(=O)(=O)N(C)Cc2ccc(Cl)cc2)s1,-1%,27%
Cc1ccc(NC(=O)CSc2ncc(S(=O)(=O)c3ccc(C(C)C)cc3)c(=O)[nH]2)cc1C,-5%,0%
CC(=O)c1ccc(NC(=O)CSc2nnc(NC(=O)Nc3ccccc3)s2)cc1,13%,11%
CCOC(=O)c1c(C)n(C)c2ccc(O)cc12,-22%&9%,/
COc1ccc(Cn2c(CCC(=O)Nc3ccccc3OC)nc3cccnc32)cc1,-12%,-6%
Cc1ccccc1-c1nnc(SCC(=O)N2CCCc3ccccc32)o1,37%[activator],11%
CCN(C(=O)Cn1c(=O)n(CC2CCC(C(=O)NC)CC2)c(=O)c2sccc21)c1ccccc1 (centres undefined),-3%,3%
Cc1nn(-c2ccccc2)c2sc(C(=O)Nc3cccc(O)c3)cc12,-23%,?

Looked up above.
`CCN(C(=O)Cn1c(=O)n(CC2CCC(C(=O)NC)CC2)c(=O)c2sccc21)c1ccccc1` (centres undefined) – PMP22 txn: 3%
`COc1ccc2oc(-c3ccc(C)c(NC(=O)c4ccc(N5CCCCC5)c([N+](=O)[O-])c4)c3)nc2c1` – PMP22 txn: -23%
`CCC(=O)Nc1nnc(S(=O)(=O)N(C)Cc2ccc(Cl)cc2)s1` – PMP22 txn: 27%
`CCOC(=O)c1c(C)n(C)c2ccc(O)cc12` – HTT promoter inh: -22%&9%
`Cc1ccccc1-c1nnc(SCC(=O)N2CCCc3ccccc32)o1` – PMP22 txn: 11%

Screening data (PubChem)
